Screening data as filed in PubChem.
Vif A3G: HIV-1 Vif–A3G interaction blockers – biochemical, TR-FRET, GST-Vif 1-94, biotin-A3G peptide, dose response retest, primary screen (AID 1117319); one-dose inhibition, %; IC50 in µM for titrated hits; hit rate 0.57% among 260,000; TR-FRET GST-Vif / biotin-A3G peptide binding; higher % means a stronger effect; test concentration not given here; strong numbers were not always called active;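 active = above the screen mean plus three standard deviations and confirmed in dose response; inconclusive = results disagree or hit not tested in dose response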;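 also: Vif residues 1-94 fused to GST binding biotinylated APOBEC3G peptide 110-148; 0% = full assay without inhibitor and 100% = GST in place of GST-Vif; retest series ran down from 100 µM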
T cruzi repl: T. cruzi replication inhibition. AID 1885. T. cruzi beta-gal in NIH3T3, luminescence, 90 h. hit rate 1.4% among 300,000. inhibition, % (no concentration beside the values);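 active = mean inhibition across valid replicates above about 55%, limit read from the data; inconclusive = mean below that limit but half or more replicates reach it; inactive = mean below it, under half of replicates reach it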;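 also: signal also drops with host cell toxicity which is not excluded here; 0% = plate median of DMSO wells and 100% = zero luminescence signal; higher percent means less beta-gal luminescence so fewer parasites; stock transfer was 50 nL into about 50 µL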
Calb FLC: C. albicans growth modulation with fluconazole. C. albicans CaCi-2 (fluconazole-resistant clinical isolate) + fluconazole, Alamar Blue growth, 48 h. growth inhibition, % (test concentration not listed). hit rate 0.57% among 300,000;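 active = most replicates above 75%; inconclusive = exactly half above 75%; inactive = most below 75%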;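 also: all wells also contain fluconazole at 8 µg/ml as a sub-toxic cotreatment; 0% = median of DMSO wells and 100% = median of geldanamycin control wells; wells of about 8 µL received 7.5 nL stock; the first replicate is given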
MLL AF4-AF9 inh: inhibitors of human MLL-AF4/AF9 interaction; AlphaScreen, biotin-AF4 peptide binding to FLAG-AF9; hit rate 0.47% among 350,000; inhibition, % at 10 µM; AID 651704;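 active = every replicate reaching a set inhibition limit, whatever the replicate mean, cut at about 25% in these data; inconclusive = mean inhibition reaches that limit but some replicates miss it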;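 also: 0% = plate neutral control median and 100% = total signal loss; the record names both 10 and 1 µM as test concentration; the first replicate is given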
Target sequence (P42568 whole entry, looked up): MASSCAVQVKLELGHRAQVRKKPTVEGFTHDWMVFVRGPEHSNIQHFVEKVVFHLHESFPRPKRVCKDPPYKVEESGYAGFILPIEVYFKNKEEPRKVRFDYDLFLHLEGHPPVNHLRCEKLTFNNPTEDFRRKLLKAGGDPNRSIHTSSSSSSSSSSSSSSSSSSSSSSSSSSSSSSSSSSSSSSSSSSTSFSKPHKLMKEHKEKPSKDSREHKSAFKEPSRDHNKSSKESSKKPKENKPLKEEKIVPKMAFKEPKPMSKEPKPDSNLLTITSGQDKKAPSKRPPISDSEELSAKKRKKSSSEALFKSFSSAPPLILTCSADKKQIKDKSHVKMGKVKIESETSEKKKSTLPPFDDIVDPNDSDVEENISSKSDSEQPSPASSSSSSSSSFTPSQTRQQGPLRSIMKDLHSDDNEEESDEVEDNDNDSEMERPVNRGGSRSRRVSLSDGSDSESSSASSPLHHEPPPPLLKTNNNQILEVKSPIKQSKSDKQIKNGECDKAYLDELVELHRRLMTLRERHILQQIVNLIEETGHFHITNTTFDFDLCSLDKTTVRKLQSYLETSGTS
RanGTP-Imp inh: disruptors of Ran-importin-beta complex formation – biochemical, FRET, CFP-Ran, YFP-importin-beta, homogeneous, primary screen; inhibition, % (concentration not given with the values); cell-free CFP-Ran/YFP-importin-beta FRET ratio; hit rate 1.1% among 300,000;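 active = most replicates above 15%; inconclusive = exactly half above 15%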;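 also: 0% = DMSO wells and 100% = Ran loaded with GDP instead of GTP; wells of about 40 µL received 100 nL stock; the first replicate is given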
Beta cell apopt: blocks beta cell apoptosis; protection from apoptosis, % (concentration not given with the values); hit rate 0.8% among 300,000; INS-1E cytokine-induced death, ATP luminescence, 48 h; percent of positive-control rescue, neutral wells zero; AID 435005;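 active = all replicates at 75% or more, or half of them and the mean; inconclusive = half reach 75% but not the mean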;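 also: 0% = cytokine-treated negative control wells and 100% = positive control rescue; higher means more ATP so stronger rescue from cytokine killing; wells of about 40 µL received 100 nL stock; the first replicate is given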
Ecoli rRNA inh: inhibits bacterial ribosomal RNA function over humanized ribosomes; E. coli WT GFP vs humanized-ribosome RFP mutants, fluorescence, 24 h; active compounds read low; DMSO median 0, no signal -100; GFP signal change (wild-type ribosome), % (no concentration beside the values); hit rate 1.6% among 350,000; AID 720706;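 active = significant combined selectivity score with lowered wild-type GFP, culture density cut under 30%, mutant RFP and density less affected; inactive = any of these conditions unmet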; also: one replicate is shown; some compounds called inactive have numbers as strong as hits
A1 inh: inhibitors of the anti-apoptotic protein A1, read as caspase activation; MEF A1-2A-BIM cells, Caspase-Glo 3/7 luminescence, 3 h; percent of clofoctol response, vehicle zero; caspase activation, % (no concentration beside the values); hit rate 0.066% among 330,000; AID 2462;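 active = over half of replicate activation scores above 10%, or exactly half above 10 with the replicate mean above 10; inconclusive = replicate mean below 10 yet half the replicates above 10; inactive = over half of replicates below 10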;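 also: wells of about 30 µL received 50 nL stock; many hits fall short of the cut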
Ecoli rRNA inh OD600: also measured in Ecoli rRNA inh; calls as there; OD600 change, %; measured here: OD600 growth;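 optical density of the mix in the first replicate; 0 = DMSO median and -100 = no signal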
Ecoli rRNA inh RFP: second read-out of Ecoli rRNA inh, no call of its own (marks repeat the call); RFP signal change, %; measured here: RFP humanized mutant strains;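 first replicate; 0 = DMSO median and -100 = no signal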
* hit, by the source's call; u = inconclusive; x = no result given.

SMILES	Vif A3G	T cruzi repl	Calb FLC	MLL AF4-AF9 inh	RanGTP-Imp inh	Beta cell apopt	Ecoli rRNA inh	Ecoli rRNA inh OD600	Ecoli rRNA inh RFP	A1 inh
COCCNC(=O)CSc1nc2scc(-c3ccccc3)c2c(=O)[nH]1	x	-30	u	11	2.2	-3	-5	-9	-1.0	1.4
O=Cc1c(N2CCCCC2)nc2ccccn2c1=O	9%	-3	8	-2.7	-3.2	-2	10	9	-0.2	-0.3
CCc1ccc(S(=O)(=O)Nc2cc(SCC(=O)O)c(O)c3ccccc23)cc1	x	-8	8	-1.7	0.1	-22	-11	-18	-15	0.1
COc1cc(OC)c(C(=O)NCCCn2ccnc2)cc1OC	3%	1	-7	-0.2	3.4	-2	17	14	-2.3	-0.1
O=C(Nc1ccc(Cl)c([N+](=O)[O-])c1)c1cnccn1	32%	-12	32	5.0	4.3	-1	8	1	-10	-0.6
Cc1ccc(S(=O)(=O)/N=C(/Nc2cccc3ccccc23)c2ccc(F)cc2)cc1	x	3	-4	-9.6	1.4	6	-7	-8	0.5	0.6
C/C(=N\NC(=O)C1COc2ccccc2O1)c1cccs1 (centres undefined)	-7%	-7	1	-4.1	0.8	-6	7	-8	-1.6	0.0
COC(=O)c1cc(N2C(=O)C3C(C2=O)C2(C)C=CC3(C)O2)ccc1Cl (centres undefined)	0%	22	23	x	-0.1	-25	x	x	x	2.3
O=C(OCC(=O)N1CCN(c2ccc(F)cc2)CC1)c1cnc2ccccc2n1	x	x	x	-1.1	x	-4	8	9	-1.2	1.1
CNC(=O)c1ccsc1NC(=O)CCS(=O)(=O)c1ccc(C)cc1	7%	5	1	-5.7	2.9	2	2	6	-0.3	0.5
CCNC(=O)CN(C1CCCCC1)S(=O)(=O)c1ccc(F)cc1	21%	-6	31	x	1.2	0	x	x	x	0.6
CC(C)=CC(=O)Nc1nnc(-c2ccc(F)cc2)s1	1%	-8	-10	x	-3.0	-4	7	8	-1.1	0.1
COc1ccc(N=C(N)SCc2ccccn2)cc1	u	-19	22	x	1.6	-7	x	x	x	-0.7
CCOC(=O)C1=C(CN2CCSCC2)NC(=O)NC1c1cc(C)ccc1C (centres undefined)	3%	3	-42	x	7.3	1	x	x	x	0.1
COc1ccc(CC(=O)NCC2CCCN(Cc3ccc(F)cc3F)C2)cc1 (centres undefined)	x	35	1	5.1	2.0	x	5	6	-1.9	0.7
CC(C)CN(CC(C)C)CC(O)CN(c1ccccc1)S(=O)(=O)c1ccccc1[N+](=O)[O-] (centres undefined)	x	36	-2	-21	-2.1	-3	-17	-9	-3.4	0.9
O=C(NCC(=O)N1CCOCC1)c1ccc(Br)cc1	-3%	-3	-8	-3.6	1.3	-1	14	13	2.5	-0.6
CC[C@H](C)[C@H](NC(N)=O)C(=O)NCCc1ccc(Cl)cc1	4%	-10	7	-0.7	0.3	-3	4	7	0.4	0.3
COC(=O)C(Cc1csc2ccc(Cl)cc12)NC(=O)c1ccc(Cl)cc1 (centres undefined)	x	-11	14	-4.5	u	-7	-16*	6.1*	0.7*	0.4
Cc1ccc(C(=O)N2NC(c3ccc(F)cc3)C3C(=O)N(c4ccc(C)c(C)c4)C(=O)C32)cc1 (centres undefined)	-2%	-15	-6	-0.2	6.4	-4	-3	13	-1.9	1.7
Cn1cnnc1SC/C(O)=C(\C#N)c1nc2ccccc2[nH]1	20µM*	-5	35	-2.5	8.7	-1	-5	-10	-1.0	-0.1
CC(C(=O)Nc1ccccc1-c1ccccc1)N1CCCCC1 (centres undefined)	21%	9	-4	x	1.6	6	x	x	x	0.3
Cn1c(NC(=O)c2cccc(Cn3cc(Cl)cn3)c2)nc2ccccc21	-12%	2	29	x	-0.9	23	x	x	x	-1.3
CC1CCc2c(sc3nc(C(C)(C)C)nc(N4CCN(C(=O)CCl)CC4)c23)C1 (centres undefined)	4%	43	31	-0.4	-3.6	98*	-40	-75	-3.4	u
COc1ccc(/C(O)=C2/C(=O)C(=O)N(CCN(C)C)C2c2ccc(F)cc2)cc1Cl (centres undefined)	-6%	0	33	x	-3.4	-3	x	x	x	0.9
c1ccc(CNc2nc(CN3CCOCC3)nc3scc(-c4ccccc4)c23)cc1	-4%	-3	11	x	3.6	13	x	x	x	0.5
CCCCOc1ccccc1N1CCN(CCCN2C(=O)C3CCCN3C2=O)CC1 (centres undefined)	-1%	-3	1	6.9	0.0	-8	4	7	0.5	-0.2
CC(C)(C)C(=O)N1CCN(c2ccc(NC(=O)c3ccc4c(c3)OCCO4)cc2)CC1	x	3	35	0.5	6.4	8	3	14	1.0	-0.2
O=C1CC(c2cc3c(cc2Br)OCO3)C2=C(CCCC2=O)N1 (centres undefined)	5%	-10	-1	x	0.3	-2	x	x	x	0.2
N#Cc1ccc(CSc2nnc(-c3c[nH]c4ccccc34)n2-c2ccccc2)cc1	-1%	25	-13	-3.3	-4.3	-5	-12	12	1.9	0.1
O=C(/C=C/Nc1ccccc1)c1ccc(Cl)cc1Cl	x	7	-49	7.8	4.5	3	6	10	0.0	-3.9
CNc1oc(-c2ccco2)nc1C#N	27%	5	-9	x	0.5	-3	x	x	x	1.0
O=C(N[C@@H](CO)C(=O)NCc1ccccc1)c1ccc(C(F)(F)F)cc1	x	-10	-3	-3.1	1.0	-4	-3	-9	-22	-0.2
Cc1cc(/C=C2\SC(N)=NC2=O)c(C)n1-c1ccccc1	19%	15	-5	x	2.5	-6	x	x	x	-0.3
CN1CCN(Cc2c(C(=O)N/N=C/c3cccc(Br)c3)nnn2-c2nonc2N)CC1	x	-13	12	-7.2	1.4	8	1	14	-0.9	0.6
CCN1CCN(CC(=O)c2cc(OC)c(OC)c(OC)c2)CC1	x	-14	28	-10	6.4	-4	14	4	6.6	-0.9
CCc1c(C(=O)N/N=C/c2sccc2C)nnn1-c1nonc1N	x	4	0	-1.9	0.9	-5	5	3	-3.3	-0.3
O=C(O)c1ccc(COc2ccccc2Cl)cc1	-2%	5	17	x	0.1	-12	x	x	x	-5.6
CC(=O)[C@@H]1[C@@H]2C(=O)N(C3CCCCC3)C(=O)[C@@H]2C2c3ccccc3C=CN21 (some centres undefined)	-1%	-12	-12	x	-5.5	-6	x	x	x	-0.8
Cc1nc(NC(CC(C)C)C(=O)O)c2nc(C)oc2n1 (centres undefined)	9%	-13	-12	-2.9	-0.7	-8	x	x	x	0.0
CC(=O)c1c(C)c[nH]c1C	23%	0	-5	x	-12	2	x	x	x	0.7
Cc1cccc(NC(=O)Nc2ccc(Cl)c(Cl)c2)n1	x	-7	-6	4.4	-1.4	9	-26*	-10*	3.0*	-2.3
COc1ccc(-n2cc(CNCCCn3ccnc3)c(-c3cccc(F)c3)n2)cc1	x	30	-24	18	-5.4	-10	-2	0	-2.9	1.5
CN(C)/N=C/c1ccc(OS(=O)(=O)c2ccccc2)cc1	x	-8	-26	5.4	1.1	0	3	-2	3.5	-3.2
Cc1cc(C)c(S(=O)(=O)c2ccccc2Cl)c(=O)[nH]1	5%	-14	25	0.7	1.7	2	1	-2	0.9	1.2
CCSC1=NC(C)(C)C=C(/C=C/c2ccc(Cl)cc2Cl)N1	1%	28	4	x	4.0	x	x	x	x	-0.2
CCOc1cc(CNc2ccc3cn[nH]c3c2)ccc1OC	21%	12	-3	x	4.5	4	x	x	x	-0.2
Cc1cccc(-c2nc(S(=O)(=O)c3ccccc3)c(N3CCOCC3)o2)c1	2%	22	5	-28	-0.3	0	11	20	1.0	-0.7
CCOC(CNC(=O)c1nnc(Cc2cc(OC)c(OC)c(OC)c2)o1)OCC	x	-11	-2	2.4	-1.0	0	7	16	13	0.9
O=C(c1ccc(F)cc1)N1CCC(C(=O)N2CCN(S(=O)(=O)c3cccc([N+](=O)[O-])c3)CC2)CC1	3%	28	1	-0.4	-0.4	x	6	6	2.6	0.7
Cc1cc2occ(CC(=O)O)c2cc1C	2%	x	15	x	-0.1	x	x	x	x	-0.3
Cc1cccc(C(=O)N[C@H](C(=O)Nc2nnc(C3CC3)s2)C(C)C)c1	x	9	0	x	2.6	-5	x	x	x	0.3
CCOC(=O)C1CCN(Cc2ccccc2C(F)(F)F)CC1	25%	-14	4	x	-1.8	-6	x	x	x	1.0
COc1ccccc1C(=O)NCCC(=O)Nc1cccnc1	4%	11	-3	-0.5	-3.4	2	7	-1	-2.1	1.2
COC(=O)Cn1nc(-c2ccccc2)c2ccccc2c1=O	12%	-7	5	x	-6.4	-7	x	x	x	0.6
Cc1ccc2[nH]c3nc(N/N=C/c4cccc(O)c4)nnc3c2c1	1%	-18	4	-0.7	3.6	-3	7	15	1.1	-0.1
C=CCNC(=O)c1onc(CSc2ccc(OC)cc2)c1C(=O)O	-2%	-10	-8	-5.7	-4.7	0	-8	-6	-8.7	-0.3
CC(=O)Nc1c(C)ccc2nsnc12	28%	-10	0	x	-0.5	-11	x	x	x	0.2
CSCCC(NC(=O)C12CC3CC(CC(C3)C1)C2)C(=O)OCC(=O)c1ccccc1 (centres undefined)	18%	-9	-7	-2.7	1.2	1	11	13	1.3	-0.4
CNC(=O)Nc1ccc2snnc2c1	-3%	-14	1	1.1	-0.8	8	5	4	1.5	-0.3

Further structures:
SMILES	Vif A3G	T cruzi repl	Calb FLC	MLL AF4-AF9 inh	RanGTP-Imp inh	Beta cell apopt	Ecoli rRNA inh	Ecoli rRNA inh OD600	Ecoli rRNA inh RFP	A1 inh
COc1cccc(OC)c1C(=O)Nc1ccc(C(=O)NCc2ccccc2)cc1	5%	-5	-8	2.4	u	x	15	12	4.5	0.2
COc1cccc(NC(=S)Nc2cccnc2)c1	7%	-7	7	x	3.5	1	x	x	x	-0.7
CCOc1ccc(C2C(C(=O)c3ccc(C)o3)=C(O)C(=O)N2c2cc(C)on2)cc1OC (centres undefined)	x	-18	-3	3.0	0.0	0	-1	2	-3.0	-1.0
Cc1cccc2cn[nH]c12	-4%	-9	-18	-0.4	u	-3	2	2	-1.6	-0.3
CCc1ccc(NC2=NC(C(=O)c3ccccc3)CC(=O)N2)cc1 (centres undefined)	18%	-9	1	x	6.1	x	x	x	x	-0.5
O=C(CSc1nc2ccccc2o1)NCc1n[nH]c(=O)c2ccccc12	1%	-2	-3	x	2.5	3	x	x	x	-0.4
COc1cc(N/N=C(\C)c2ccc(O)c(C)c2)nc(-c2ccccc2)n1	x	46	13	2.3	u	23	-37*	-29*	12*	-0.1
CCn1c2ccccc2c2nnc(SCCN3CCOCC3)nc21	x	4	9	-1.7	0.4	0	-3	-6	-5.9	0.3
Cc1ccc(NC(=S)N2CCN(c3ccccn3)CC2)cc1C	x	-18	-46	1.8	0.4	-2	9	4	1.1	-0.3

Some of the compounds tested; the hit share may differ from the screen's.
